Bioassay records from PubChem.
CatS inh = inhibitors of human cathepsin S, biochemical, compound mixtures; P25774; recombinant cathepsin S, AMC dipeptide fluorescence, pooled mixtures; inhibition, %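 (tested at 5 µM per compound within 10-compound mixtures)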; hit rate 0.06% among 62,000; in the data active means inhibition above about 32%, passing the limit was not always enough;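 further: 0% = enzyme without compound and 100% = blank without enzyme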
Target sequence (P25774 115-331 limits assumed): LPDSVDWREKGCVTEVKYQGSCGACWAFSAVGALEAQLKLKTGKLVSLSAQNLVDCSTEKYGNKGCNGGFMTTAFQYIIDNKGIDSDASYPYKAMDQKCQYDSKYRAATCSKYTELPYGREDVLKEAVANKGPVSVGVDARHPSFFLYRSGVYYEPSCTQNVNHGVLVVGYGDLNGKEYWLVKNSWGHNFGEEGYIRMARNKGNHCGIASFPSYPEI
CatL inh = inhibitors of human cathepsin L, biochemical; purified cathepsin L, fluorogenic substrate, fluorescence; inhibition, %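 (tested at 10 µM)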; hit rate 0.17% among 58,000; AID 460, 2006; in the data active means inhibition above about 45%;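 further: 0% = enzyme with no compound and 100% = no enzyme blank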
Target sequence (P07711 114-288 limits assumed): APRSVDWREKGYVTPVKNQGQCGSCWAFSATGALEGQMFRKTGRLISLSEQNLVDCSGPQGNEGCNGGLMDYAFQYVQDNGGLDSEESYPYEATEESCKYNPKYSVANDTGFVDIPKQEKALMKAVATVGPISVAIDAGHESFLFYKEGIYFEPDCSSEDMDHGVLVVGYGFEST
Target sequence (P07711 292-333 limits assumed): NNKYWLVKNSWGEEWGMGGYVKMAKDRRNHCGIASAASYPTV
AP complement = alternative complement pathway inhibitors, primary screen, biochemical, ELISA, human serum, orthogonally pooled compounds | hit rate 0.08% among 62,000 | inhibition, % at 5 µM | LPS-coated ELISA, C3 deposition; tested in compound mixtures;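 active means inhibition above 30% in each of the two pooled mixtures holding the compound, so the lower value exceeds 30%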;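 further: 0% = serum in Mg-EGTA without compound and 100% = EDTA serum blank; some compounds past the cut are filed as inactive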
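Assay system: Human serum alternative complement pathway, C3 deposition on LPS-coated wells | Incubation: 1 h serum-compound exposure at 37 °C | Doses: 5 µM per compound in ten-compound mixtures | Read-out: Percent inhibition | Technique: ELISA with HRP anti-human C3 antibody, TMB substrate, absorbance 450 nm | Replication: Two pool placements per compound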
Ec RNAP inh = E. coli RNAP inhibitors, biochemical; DNA-directed RNA polymerase subunit beta (Escherichia coli (strain K12)), P0A8V2; E. coli RNA polymerase, fluorescence transcription assay; inhibition, %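 (tested at 10 µM)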; hit rate 0.2% among 62,000; in the data active means inhibition above about 20%;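 further: 0% = enzyme without compound and 100% = no enzyme blank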
CatB inh = human cathepsin B inhibitors, primary screen, biochemical, fluorogenic substrate; P07858; purified cathepsin B, fluorescence; inhibition, %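 (tested at 10 µM)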; hit rate 0.1% among 63,000; in the data active means inhibition above about 21%;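 further: 0% = enzyme with no compound and 100% = no enzyme blank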
CatB mixtures = cathepsin B inhibitors from pooled compounds, primary screen, biochemical, compound mixtures, AMC fluorescence | hit rate 0.06% among 62,000 | Purified cathepsin B, AMC dipeptide fluorescence | P07858 | AID 488, 2006 | inhibition, %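 (ten-compound pools at 5 µM per compound and 50 µM total)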; in the data active means inhibition above about 22%, passing the limit was not always enough;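 further: 0% = enzyme without compound and 100% = no enzyme blank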
Cathepsin G inh = human cathepsin G inhibitors, primary screen, biochemical, pooled compound mixtures, AMC fluorescence; purified enzyme, AMC-tetrapeptide fluorescence; inhibition, % at 5 µM (by protocol); hit rate 0.2% among 62,000; AID 581, 2007;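 active means inhibition above 20% in each of the two mixture wells holding the compound; inactive means inhibition of 20% or less in either well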;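 further: 0% = enzyme control without mixture and 100% = blank lacking enzyme; strong numbers were not always called active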
Target sequence (P08311 21-244 limits assumed): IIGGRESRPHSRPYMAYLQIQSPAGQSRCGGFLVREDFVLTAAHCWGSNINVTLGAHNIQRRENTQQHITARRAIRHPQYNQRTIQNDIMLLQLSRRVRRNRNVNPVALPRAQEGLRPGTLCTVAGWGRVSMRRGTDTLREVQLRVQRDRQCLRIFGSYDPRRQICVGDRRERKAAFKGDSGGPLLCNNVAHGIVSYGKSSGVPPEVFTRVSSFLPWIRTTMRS
* hit, by the source's call; / = not tested or not shown.

| structure | CatS inh | CatL inh | AP complement | Ec RNAP inh | CatB inh | CatB mixtures | Cathepsin G inh |
| --- | --- | --- | --- | --- | --- | --- | --- |
| CC1=C(C(=O)Nc2cc(C)ccn2)C(c2ccc(C)cc2)C2=C(CCCC2=O)N1 (stereo unspecified) | 24.2 | -6.2 | 7.1 | 15.6 | 1.5 | -0.8 | -2.6 |
| CCCCn1c(SCC(=O)NCc2ccco2)nnc1-c1ccco1 | 9.5 | 15.2 | -16.8 | 8.2 | 5.8 | 4.4 | -4.8 |
| Cc1cccc(N(CC(=O)N2CCCC2)S(=O)(=O)c2ccccc2)c1 | 5.1 | 3.1 | 14.4 | -4.3 | 1.3 | 2.9 | 9.7 |
| Cc1sc2ncn(CC(=O)NCCCC(=O)N3CCN(c4ncccn4)CC3)c(=O)c2c1C | -0.1 | 9.6 | 4.1 | 3.9 | -3.7 | -0.4 | -0.6 |
| CCOC(=O)C1CCN(Cc2ccc(OC)c(C)c2OC)CC1 | 22.9 | 9.2 | -0.8 | 7.1 | / | 6.0 | -17.0 |
| COc1cccc(/C=N\n2c(C)nnc2C)c1OC | -6.8 | -5.3 | 17.9 | 1.1 | 1.2 | 2.8 | 7.2 |
| COc1cc(OC)cc(C(=O)N2CCC(n3c(C)nc4cc(F)ccc43)CC2)c1 | 1.9 | 29.9 | 6.0 | 4.6 | -1.4 | -1.2 | 1.4 |
| Cc1cc(Nc2ccccc2)n(CCC#N)n1 | -11.0 | 5.7 | 12.2 | 3.0 | -2.2 | 5.1 | 9.8 |
| CCn1c(Cc2ccccc2)nnc1SCC(=O)Nc1ccc(S(N)(=O)=O)cc1 | -11.7 | / | 3.9 | 7.3 | 8.0 | -17.3 | -13.3 |
| CC(C)Nc1ncnc2c1cnn2-c1ccccc1 | -6.2 | 1.2 | 6.8 | 6.4 | 0.5 | 2.4 | 7.0 |
| O=C(CSc1nc(O)cc(=O)[nH]1)C1CC1 | -11.0 | -10.4 | 19.3 | 0.2 | -10.7 | 2.5 | -2.2 |
| Cc1cccc2cc(CN(Cc3ccco3)C(=O)c3ccncc3)c(=O)[nH]c12 | -3.7 | -4.5 | 8.4 | 3.1 | -0.5 | -3.3 | 10.5 |
| Cc1ccc(OCc2nnc(SCC(=O)Nc3ccc4c(c3)OCO4)n2C)cc1 | 7.3 | -2.1 | 28.1 | 7.7 | -3.6 | 4.4 | 11.9 |
| O=C1OC(c2ccc(Br)cc2)=N/C1=C\N1CCCCC1 | 20.3 | 7.8 | 5.2 | 8.7 | 0.4 | 10.9 | 0.6 |
| Cc1cc2c(c(=O)n1CCN(C)C)C(c1ccncc1)C(C#N)=C(N)O2 (stereo unspecified) | 5.6 | 1.2 | -1.6 | 4.3 | 4.1 | 5.6 | -2.4 |
| CCn1c(SCC(=O)NCc2ccco2)nc2c(c1=O)SC(C)C2 (stereo unspecified) | 7.3 | 14.2 | 4.8 | 8.9 | 3.0 | 0.2 | 4.5 |
| CCC(C)NCC(=O)Nc1ccc(-c2nc3cc(NC(=O)CNC(C)CC)ccc3o2)cc1 (stereo unspecified) | -18.5 | -35.2 | 12.2 | / | -2.4 | 0.6 | -1.4 |
| c1ccc2[nH]c(NC3=NCCC3)nc2c1 | 9.4 | 21.9 | -1.7 | 1.5 | 2.5 | -0.9 | 5.3 |
| CCOc1cc(C)c(Cl)cc1S(=O)(=O)NCc1ccc2c(c1)OCO2 | 5.4 | -0.8 | 13.8 | 3.7 | 0.7 | -5.9 | 4.5 |
| COC(=O)CCN(C(=O)C1C2CC3CC(C2)CC1C3)c1ccccn1 (stereo unspecified) | -4.1 | 8.6 | 26.6 | 1.1 | 1.1 | -4.4 | 3.8 |

Ordered by heavy-atom count (low to high): some entries from above.
| structure | CatS inh | CatL inh | AP complement | Ec RNAP inh | CatB inh | CatB mixtures | Cathepsin G inh |
| --- | --- | --- | --- | --- | --- | --- | --- |
| O=C(CSc1nc(O)cc(=O)[nH]1)C1CC1 | -11.0 | -10.4 | 19.3 | 0.2 | -10.7 | 2.5 | -2.2 |
| Cc1cc(Nc2ccccc2)n(CCC#N)n1 | -11.0 | 5.7 | 12.2 | 3.0 | -2.2 | 5.1 | 9.8 |
| COc1cccc(/C=N\n2c(C)nnc2C)c1OC | -6.8 | -5.3 | 17.9 | 1.1 | 1.2 | 2.8 | 7.2 |
| O=C1OC(c2ccc(Br)cc2)=N/C1=C\N1CCCCC1 | 20.3 | 7.8 | 5.2 | 8.7 | 0.4 | 10.9 | 0.6 |
| CCOC(=O)C1CCN(Cc2ccc(OC)c(C)c2OC)CC1 | 22.9 | 9.2 | -0.8 | 7.1 | / | 6.0 | -17.0 |
| CCn1c(SCC(=O)NCc2ccco2)nc2c(c1=O)SC(C)C2 (stereo unspecified) | 7.3 | 14.2 | 4.8 | 8.9 | 3.0 | 0.2 | 4.5 |
| CCCCn1c(SCC(=O)NCc2ccco2)nnc1-c1ccco1 | 9.5 | 15.2 | -16.8 | 8.2 | 5.8 | 4.4 | -4.8 |
| Cc1cc2c(c(=O)n1CCN(C)C)C(c1ccncc1)C(C#N)=C(N)O2 (stereo unspecified) | 5.6 | 1.2 | -1.6 | 4.3 | 4.1 | 5.6 | -2.4 |
| Cc1cccc2cc(CN(Cc3ccco3)C(=O)c3ccncc3)c(=O)[nH]c12 | -3.7 | -4.5 | 8.4 | 3.1 | -0.5 | -3.3 | 10.5 |
| COc1cc(OC)cc(C(=O)N2CCC(n3c(C)nc4cc(F)ccc43)CC2)c1 | 1.9 | 29.9 | 6.0 | 4.6 | -1.4 | -1.2 | 1.4 |
| CCC(C)NCC(=O)Nc1ccc(-c2nc3cc(NC(=O)CNC(C)CC)ccc3o2)cc1 (stereo unspecified) | -18.5 | -35.2 | 12.2 | / | -2.4 | 0.6 | -1.4 |

Next section
| structure | CatS inh | CatL inh | AP complement | Ec RNAP inh | CatB inh | CatB mixtures | Cathepsin G inh |
| --- | --- | --- | --- | --- | --- | --- | --- |
| Cc1ccc2[nH]c(=O)c(-c3noc(C(C)C)n3)cc2c1 | -3.8 | -9.8 | 20.6 | 2.0 | -0.8 | 2.5 | 22.6 |
| O=C(Nc1ccccc1)C1=C(O)CC(c2ccoc2)CC1=Nc1ccccc1 (stereo unspecified) | -2.5 | 8.2 | 4.5 | 9.4 | 2.7 | 2.8 | 2.9 |
| COc1ccc(-c2cc(C(F)(F)F)nc(S(C)(=O)=O)n2)cc1OC | -7.0 | / | 11.3 | -4.8 | 1.1 | -1.0 | -5.8 |
| COC(=O)C1=C(N)Oc2cc(C)n(CCN3CCOCC3)c(=O)c2C1c1cccnc1 (stereo unspecified) | 1.6 | 11.4 | -8.2 | / | 0.3 | -3.8 | -11.9 |
| Cc1cccc(-n2c(SCC(=O)NCc3ccco3)nnc2-c2ccco2)c1 | 9.9 | -3.0 | 2.1 | 7.8 | 5.9 | 18.9 | -3.8 |
| O=C(Oc1ccccc1C(=O)Oc1ccccc1)c1ccco1 | -2.2 | 1.1 | 15.6 | -1.1 | -3.9 | 4.6 | 0.2 |
| O=C(c1ccccc1C(F)(F)F)N1CCN(S(=O)(=O)c2ccccc2)CC1 | -9.4 | -3.7 | 10.1 | 5.1 | 1.7 | 2.5 | 5.9 |
| CCSc1ccccc1C(=O)n1nnc2ccccc21 | -5.6 | 2.6 | 12.6 | 5.3 | 32.2* | 29.7* | 35.2* |
| COC(=O)c1ccc(Oc2cc(C)nc(-n3nc(C)cc3C)n2)cc1 | 0.9 | 2.1 | 13.2 | / | -3.8 | -2.5 | 1.3 |
| C=CCn1c(=O)c2ccccc2n2c(Sc3nnnn3-c3ccccc3)nnc12 | 6.3 | 0.7 | 0.3 | / | 3.5 | -7.5 | -11.7 |
| CCC(=O)Oc1ccc2c(C)cc(=O)oc2c1C | -22.2 | -0.4 | 13.7 | -25.4 | 1.6 | -12.5 | -3.7 |
| COc1cccc(C2=NOC(C(=O)NCc3ccc(F)cc3)C2)c1 (stereo unspecified) | -3.2 | 6.1 | 14.6 | 6.0 | 3.5 | 2.6 | 7.7 |
| CCCc1cc(=O)[nH]c(/N=C(\N)Nc2ccccc2)n1 | -11.1 | 10.4 | 2.7 | 2.4 | 1.9 | -10.5 | 12.2 |
| COc1ccc(S(=O)(=O)n2nc(OC(=O)C3CCCCC3)cc2N)cc1 | -0.2 | -4.0 | 17.9 | -5.0 | 7.1 | 4.3 | 6.0 |
| CCCc1ccc(OCc2ccc(C(=O)OC)o2)c(OC)c1 | -1.9 | -4.2 | 1.1 | 2.2 | -1.5 | 0.4 | -2.9 |
| Cn1c(SCC(=O)NC2CC2)nnc1C(F)(F)F | 15.8 | 1.4 | -4.3 | / | 0.7 | 4.5 | 4.1 |
| CC(C)Nc1ncnc2c1cnn2-c1ccc(Cl)cc1 | 3.1 | / | 14.4 | 4.3 | 4.3 | 1.6 | -0.7 |
| O=C(c1ccc2c(c1)OCO2)n1nnc2ccccc21 | 8.2 | 18.0 | 0.7 | 9.1 | 6.1 | 5.2 | 89.3* |
| O=C(NC1CCCCC1)C1CCN(c2nccs2)CC1 | 29.8 | 3.4 | 14.9 | 2.6 | 1.8 | -0.2 | 2.8 |
| COC(=O)c1ccccc1NC(=O)C1CC(c2ccc(F)cc2)=NO1 (stereo unspecified) | -5.2 | -0.8 | 1.8 | -7.3 | 1.9 | -1.3 | 3.1 |
| COc1ccc(OC)c2sc(NC(=O)C3=COCCO3)nc12 | -0.3 | -1.4 | 28.4 | 5.4 | 2.1 | 4.7 | 6.1 |
| CCC(=O)N1C(C(=O)N2CCCC2)CSC1c1ccc(OC)cc1 (stereo unspecified) | 5.5 | 4.7 | 9.8 | 2.7 | 4.0 | 3.3 | 8.6 |
| Cc1nn(C(=O)c2ccccc2)c2c1C(=O)CC(C)(C)C2 | 14.2 | 16.5 | 0.6 | 2.5 | 8.0 | -0.7 | 49.2* |
| COCCn1c(=N)c(C(=O)NCc2ccco2)cc2c(=O)n3ccccc3nc21 | -0.8 | -12.5 | 10.7 | -13.7 | 6.7 | -7.9 | -24.1 |

Sorted by molecular weight (rising): 3 of the compounds above.
| structure | CatS inh | CatL inh | AP complement | Ec RNAP inh | CatB inh | CatB mixtures | Cathepsin G inh |
| --- | --- | --- | --- | --- | --- | --- | --- |
| Cc1nn(C(=O)c2ccccc2)c2c1C(=O)CC(C)(C)C2 | 14.2 | 16.5 | 0.6 | 2.5 | 8.0 | -0.7 | 49.2* |
| COC(=O)c1ccccc1NC(=O)C1CC(c2ccc(F)cc2)=NO1 (stereo unspecified) | -5.2 | -0.8 | 1.8 | -7.3 | 1.9 | -1.3 | 3.1 |
| CCC(=O)N1C(C(=O)N2CCCC2)CSC1c1ccc(OC)cc1 (stereo unspecified) | 5.5 | 4.7 | 9.8 | 2.7 | 4.0 | 3.3 | 8.6 |

A portion of the library, so the mix of outcomes need not match the whole.
